BJeLR viability: kills HRASV12-expressing BJeLR cells | BJeLR (HRASV12) viability, CellTiter-Glo ATP luminescence, 48 h; reference of the scale not given here | AID 1554 | inhibition, % (concentration not given with the values) | 300,000 tested, 0.17% active;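 active = replicate mean above 50%; inconclusive = above 50% but judged a plate artefact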;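 note: 50 nL library stock added to about 25 µL; numbers are from one replicate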
Sa RN4220 lethal: S. aureus RN4220 growth inhibition; OD600, 16 h; 330,000 tested, 0.33% active; inhibition, % (concentration not given with the values);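 active = z-score of -3 or lower and OD600 up to 0.18 on both plates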;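 note: plate controls were untreated cells for no effect and reference antibiotic for full effect; stock transfer was 100 nL into about 80 µL; one replicate is shown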
Mtb hypoxia inh: inhibitors of hypoxia-regulated fluorescent reporter in Mycobacterium tuberculosis; M. tuberculosis hypoxia-regulated fluorescent reporter, fluorescence; fluorescence inhibition, % (concentration not given with the values); 300,000 tested, 0.1% active; AID 1159583;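 active = 35 to 45% if threefold the growth effect, above 45% if 1.5-fold the growth effect; inactive = the rest, general growth blockers included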;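 note: wells of about 50 µL received 100 nL stock; 0% = vehicle wells and 100% = reference inhibitor wells; whole bacteria with a GFP reporter of the hypoxia response; strong numbers were not always called active; many hits fall short of the cut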
Sa ugtP lethal: growth inhibition of S. aureus ugtP deletion strain; S. aureus RN4220 ugtP deletion, OD600 growth, 16 h; some inactives read as strong as hits; growth inhibition, % (test concentration not listed); 330,000 tested, 0.54% active; AID 1259309;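 active = z-score under -3 and OD600 up to 0.15 on both plates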;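 note: plate controls were untreated wells for no effect and antibiotic for full effect; wells of about 80 µL received 100 nL stock; the first replicate is given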
Bead autofluor: compound fluorescence in toxin protease inhibitor counterscreen; compound autofluorescence counterscreen, microsphere flow cytometry; stronger effect = higher value; fluorescence intensity (concentration not given with the values); 360,000 tested, 3.1% active; AID 624483;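 active = at least 3 SD above the mean of all compounds, about 16000 in these data; inconclusive = too few beads counted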;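 note: 100 nL of 1 mM stock went into each well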
PrP UTR inh: suppresses PrP 5' UTR mRNA reporter expression; cell-based PrP 5' UTR mRNA reporter, plate reader; inhibition, % (concentration not given with the values); 340,000 tested, 0.35% active; AID 488862;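 active = every replicate at 50% or more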;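 note: 0 = median of the neutral control wells; tested in H4 reporter cells; numbers are from one replicate; inactives centre near -14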
Mtb hypoxia inh growth: also measured in Mtb hypoxia inh; calls as there; growth inhibition, %; measured here: M. tuberculosis growth (absorbance);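 0% = vehicle and 100% = reference antibiotic; read after six days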
Starred values were filed as active, the others as inactive; ? = inconclusive; . = no result given; & = joins results of further samples.

SMILES | BJeLR viability | Sa RN4220 lethal | Mtb hypoxia inh | Mtb hypoxia inh growth | Sa ugtP lethal | Bead autofluor | PrP UTR inh
CC(CC(=O)Nc1ccc(F)cc1F)S(=O)(=O)c1ccc2c(c1)NC(=O)CO2 (configuration not stated) | -2 | 2.3 | 13 | 4 | 6 | 6048 | -4
Cc1ccc(CN(C(=O)C(F)(F)F)C(C(=O)NC2CCCCC2)c2ccco2)cc1 (configuration not stated) | 1 | -3.8 | . | . | 5 | 2768 | -16
O=C(O)CCCn1cc(NC(=O)c2ccc(F)cc2)cn1 | 4 | 3.4 | 0 | 10 | 8 | 4268 | 4
CCOc1ccc(-c2cc(CCCC(=O)NCc3ccc(C)cc3)no2)cc1 | -3 | -9.3 | 4 | 8 | 3 | 5483 | 30
C=CCN(CC=C)C(=O)C1CCN(S(=O)(=O)c2ccc(N3CCCC3=O)cc2)CC1 | 8 | 3.2 | -8 | 1 | 6 | 6134 | -20
COc1ccccc1C(=O)C1CCCN(C(=O)c2cccc(-n3cccn3)c2)C1 (configuration not stated) | -7 | 5.7 | 1 | -1 | 2 | 4547 | -12
CC1=CC(C)(C)NC(=S)N1c1cccc(C)c1 | 3 | -1.1&1.6 | 13&2 | 13&6 | 7&11 | 3635&12991 | -5&0
COc1ccc(C(=O)NCC(=O)OCC(=O)N2CCc3ccccc32)cc1 | -13 | 5.0 | 3 | 2 | 5 | 4446 | -26
O=C(NC1CCCCC1)C(c1ccc2ncccc2c1)N(Cc1ccc(F)cc1)C(=O)c1ccc2c(c1)OCCO2 (configuration not stated) | 4 | -0.6 | -4 | 3 | 1 | 13048 | -22
O=C(O)c1ccccc1S(=O)(=O)NCC(O)COc1ccc(Br)cc1 (configuration not stated) | 1 | 2.0 | 3 | 7 | 4 | 9514 | -11
O=C(CN1CCCN(Cc2ccc(F)cc2Cl)C1=O)NC1CCCCCC1 | -7 | 1.7 | 1 | 7 | 4 | 11222 | -13
N#Cc1ccccc1NC(=O)Nc1ccccc1 | -6 | 5.7 | 8 | 11 | 12 | 3743 | -7
O=C(NCc1ccco1)c1ccc(C(F)(F)F)cc1 | -16 | 7.9 | . | . | -1 | 4926 | -21
COc1ccc(OC)c(CCNC(=O)C(C)n2nc(C)c3c(C)n(-c4ccc(C)cc4)nc3c2=O)c1 (configuration not stated) | 2 | -0.4 | 7 | 1 | 3 | 4737 | -22
Cc1csc(=NC(=O)c2ccccc2)n1C | 4 | 5.4 | . | . | -2 | 3769 | -49
CC(O)(c1ccccc1)C(c1ccccc1)C1CCCCN1 (configuration not stated) | 3 | 8.9 | 4 | -4 | 4 | 4037 | -4
CC1(C)CC(=O)C2=C(C1)NC(=O)CC2C(=O)NCc1ccc(F)cc1 (configuration not stated) | -4 | 1.8 | 0 | 0 | -2 | . | .
Cc1ccc(CNC(=O)CCC(=O)N2CC(C)Oc3ccc(Cl)cc32)cc1 (configuration not stated) | -22 | -4.5 | -9 | -6 | -17 | 5698 | -16
O=C(CN(Cc1ccccc1Cl)C(=O)c1csnn1)NC1CCCC1 | -5 | 0.6 | 5 | -3 | 0 | 3756 | -5
O=C(Oc1cncc(Cl)c1)c1sccc1Cl | 1 | 3.5 | 3 | 8 | 12 | 5835 | -2
C=CCn1c(-c2ccccc2)cc(SC)c(C#N)c1=O | 3 | 0.0 | 13 | 2 | 19 | 2625 | -15
CCC1Sc2ccccc2N(CC(=O)NCc2ccccc2OC)C1=O (configuration not stated) | 1 | 2.6 | 5 | 0 | -1 | 8080 | -17
O=C1CSC(=S)N1/N=C/c1c(F)cccc1F | 1 | . | . | . | . | 4014 | -25
Cc1cc(NC(=O)CCC(=O)N(Cc2ccco2)C(C(=O)NCC2CCCO2)c2ccncc2)no1 (configuration not stated) | -8 | 0.8 | 3 | 9 | 7 | 4579 | -11
O=C(CN(C(=O)CNS(=O)(=O)c1ccc(F)cc1)c1cccc(F)c1)NCC1CCCO1 (configuration not stated) | 1 | 3.5 | 6 | 5 | 1 | 5523 | -23
(listing goes on)
SMILES | BJeLR viability | Sa RN4220 lethal | Mtb hypoxia inh | Mtb hypoxia inh growth | Sa ugtP lethal | Bead autofluor | PrP UTR inh
COC(=O)Cc1csc(NC(=O)CSc2nnc3ccccn23)n1 | -3 | -0.7 | -3 | -1 | -4 | 2202 | -22
Cc1ccc(C(=O)N/C(=C\c2ccccc2)C(=O)OCc2ccccc2)cc1 | 5 | 0.9 | 8 | 0 | 30 | 2054 | -55
CCOC(=O)c1coc(C(=O)OCC)c1C(=O)OCC | . | 3.3 | 9 | 8 | 5 | 3545 | -25
O=C(NCC1CCCN(C2Cc3ccccc3C2)C1)c1cccs1 (configuration not stated) | 2 | . | . | . | . | 6039 | -14
CC12CCCC[C@@H]1CCC1C2CCC2(C)C1CC[C@@]2(O)CNCCO (some centres not stated) | 7 | -7.2 | 8 | 2 | -10 | 3743 | .
Cc1ccc(N2C(=O)[C@@H]3[C@H](C2=O)C2c4ccccc4C=CN2[C@@H]3C(=O)c2ccco2)c(C)c1 (some centres not stated) | 2 | 1.4 | . | . | -4 | 2626 | -7
C=CCn1c(=N)c(C(=O)NCCCOC)cc2c(=O)n3cccc(C)c3nc21 | -8 | 5.5 | 7 | -5 | -5 | 2506 | 2
CCOC(=O)N=Nc1c(O)n(CC(=O)OC)c2ccccc12 | -7 | -1.5 | 3 | 21 | -1 | 1938 | 5
COC(=O)c1ccc2c(c1)N(C)CCS2 | 2 | 15 | . | . | 9 | 5319 | -9
CCN(CC)Cc1cc(CCNC(=O)c2ccc(Cl)cc2)ccc1O | 14 | -1.8 | -4 | 10 | -5 | 11280 | -3
Cc1cc(N/N=C/c2cccc(F)c2)nc(NCc2ccccc2)n1 | -4 | . | . | . | . | 4619 | -20
COc1ccc(OC(=O)CN2C(=O)C3C4CCC(C4)C3C2=O)cc1 (configuration not stated) | -27 | 1.9 | 5 | -6 | 5 | 2054 | 2
Fc1ccc(N2CCN(Cc3cn[nH]c3-c3ccccc3)CC2)cc1 | -14 | 2.0 | 9 | 3 | 1 | 6300 | -12
CC(=O)N(c1ccc(C)cc1)c1nc(C)cc(C)c1C#N | 0 | 0.1 | 7 | -3 | 5 | 6125 | -29
CCOC(=O)c1cc2c(ccn2C)n1CC(=O)N1CCN(c2ccc(F)cc2)CC1 | -4 | 3.9 | -6 | 1 | -3 | 7999 | -10
S=C(NCc1ccco1)N1CCN(Cc2ccc(Cl)cc2Cl)CC1 | -6 | 11 | 0 | 0 | -2 | 2453 | -10
COc1ccc(-c2noc(CCC(=O)N3CCN(c4ccccc4F)CC3)n2)cc1 | . | 1.1 | -1 | 17 | 3 | 3913 | -5
Cc1ccccc1C=CC1=NCCN1 | . | 5.1 | 5 | 9 | 3 | . | .
CC(=O)c1cccc(NC(=O)N2CCCC2C(=O)Nc2ccccc2C)c1 (configuration not stated) | 8 | 4.6 | 1 | 13 | 5 | 4659 | -29
COc1cc(C(=O)NN=Cc2cc([N+](=O)[O-])cs2)cc(OC)c1OC | . | 0.2 | -25 | 9 | 2 | . | .
COc1ccc([C@@H]2[C@@H]3C(=O)N(C(C)(C)C)C(=O)[C@@H]3[C@]3(C)C(=O)N(c4ccc(C)cc4)C(=O)N23)cc1 | -4 | -13 | 5 | 1 | -4 | 3916 | -15
Cc1cc(F)c(F)c(C(=O)N2C(C)CCCC2C)c1Cl (configuration not stated) | -3 | 3.8 | -4 | 4 | 0 | 4352 | -2
C[C@@H]1C(=O)O[C@H]2C[C@@]34[C@H]5C[C@@H](C(C)(C)C)[C@]36[C@@H](OC(=O)[C@@H]6O)O[C@@]4(C(=O)O5)[C@]21O | 2 | 0.3 | -1 | 9 | 3 | 3884 | -12
O=S(=O)(Nc1c(O)ccc2ccccc12)c1ccc(F)cc1 | 0 | 9.5 | 7 | 2 | -1 | 4489 | -6
N#Cc1ccc(NC(=O)C2=COCCO2)cc1 | . | 6.9 | 2 | -6 | 5 | 6475 | -16

Random excerpt: six compounds from above.
SMILES | BJeLR viability | Sa RN4220 lethal | Mtb hypoxia inh | Mtb hypoxia inh growth | Sa ugtP lethal | Bead autofluor | PrP UTR inh
COc1ccc(-c2noc(CCC(=O)N3CCN(c4ccccc4F)CC3)n2)cc1 | . | 1.1 | -1 | 17 | 3 | 3913 | -5
CCN(CC)Cc1cc(CCNC(=O)c2ccc(Cl)cc2)ccc1O | 14 | -1.8 | -4 | 10 | -5 | 11280 | -3
CC(=O)c1cccc(NC(=O)N2CCCC2C(=O)Nc2ccccc2C)c1 (configuration not stated) | 8 | 4.6 | 1 | 13 | 5 | 4659 | -29
Cc1ccc(C(=O)N/C(=C\c2ccccc2)C(=O)OCc2ccccc2)cc1 | 5 | 0.9 | 8 | 0 | 30 | 2054 | -55
COc1ccc([C@@H]2[C@@H]3C(=O)N(C(C)(C)C)C(=O)[C@@H]3[C@]3(C)C(=O)N(c4ccc(C)cc4)C(=O)N23)cc1 | -4 | -13 | 5 | 1 | -4 | 3916 | -15
COc1cc(C(=O)NN=Cc2cc([N+](=O)[O-])cs2)cc(OC)c1OC | . | 0.2 | -25 | 9 | 2 | . | .

Next section
SMILES | BJeLR viability | Sa RN4220 lethal | Mtb hypoxia inh | Mtb hypoxia inh growth | Sa ugtP lethal | Bead autofluor | PrP UTR inh
CCOC(=O)c1cc(-c2ccc(F)cc2)nc2c1c(=O)[nH]c(=O)n2Cc1ccccc1 | 0 | 0.3 | -9 | -1 | 3 | 3466 | 8
Cc1ccc(NS(=O)(=O)c2ccc3c(c2)NC(=O)CCS3)cc1C | 3 | 11 | -8 | -2 | -9 | 5388 | -7
CN(C)CCCNc1ncnc2c1cnn2Cc1ccccc1Cl | 9 | 1.9 | 2 | -3 | 5 | 2769 | -6
CONC(=O)Nc1ccccc1[N+](=O)[O-] | -6 | 4.8 | 2 | 7 | 5 | 2366 | 1
COc1cccc(C(=O)NN2C(=S)N(c3ccccc3)C(=O)C2CC(N)=O)c1 (configuration not stated) | 0 | 1.8 | -4 | -5 | 8 | 3980 | -27
COCCCNC(=O)CS(=O)(=O)Cc1nc(-c2ccccc2C)oc1C | -1 | -13 | 8 | 6 | -7 | 5782 | -29
O=C(CN1C(=O)S/C(=C\c2cccc(Cl)c2)C1=O)NC1C=CS(=O)(=O)C1 (configuration not stated) | 1 | 2.0 | 2 | 2 | -1 | 5735 | -4
COc1ccc(N(C2CSC2)S(=O)(=O)c2ccccc2)cc1 | -1 | 15 | 5 | 8 | 4 | 10873 | -15
CCOC(=O)C1CCCN(C(=O)c2cn(CC)c3ccc(S(=O)(=O)N4CCCC4)cc3c2=O)C1 (configuration not stated) | . | 0.3 | 9 | 2 | 1 | 16154* | 4
Cc1cccc(NS(=O)(=O)c2cccc(C(=O)N3CCCCCCC3)c2)c1 | . | 7.2 | -3 | 13 | -11 | 4165 | -9
COc1ccc(NC(=O)c2cccnc2Nc2ccc(OC)cc2)cc1 | 5 | -22 | 12 | 15 | 26 | 3347 | -9
c1ccc(CNc2nc(-c3cccs3)nc3ccccc23)nc1 | 7 | 4.0 | 8 | 4 | -12 | 3611 | -18
Cc1cccc(NC(=O)C2CCN(S(=O)(=O)c3c(C)noc3C)CC2)c1 | -3 | 0.0 | 10 | 3 | 0 | 5549 | -18
Cn1cccc1Cc1nnc(SCC(=O)Nc2ccc(F)cc2)n1-c1ccc(F)cc1 | 5 | 7.1 | . | . | 5 | 4473 | 0
CCOc1ccc(N(C(=O)c2snc(C(N)=O)c2N)C(C(=O)NC2CCCC2)c2ccncc2)cc1 (configuration not stated) | -2 | -2.4 | -1 | -1 | -3 | 5814 | -4
COc1ccc(NC(=O)CN2C(=O)c3ccccc3S2(=O)=O)cc1S(=O)(=O)N1CCOCC1 | . | -0.7 | -2 | 4 | 9 | ? | -8
C/C(=N\NC(=O)c1cc(-c2cccs2)nc2ccccc12)c1ccccn1 | 45 | . | . | . | . | 1975 | 47
COc1ccc(C=NNC(=O)CCc2c(C)n[nH]c2C)c(OC)c1OC | . | 1.2 | 3 | 0 | 3 | . | .
NC(=O)C1CCCN(C(=O)CNC(=O)C23CC4CC(CC(C4)C2)C3)C1 (configuration not stated) | . | 0.3 | -1 | 7 | -1 | ? | -12
Cc1ccccc1NC(=O)/C(C#N)=C\c1cn(CC(=O)O)c2ccccc12 | 1 | 3.2 | 11 | 9 | 1 | 4517 | -24
CN(C)S(=O)(=O)c1cccc(C(=O)N2CCc3ccccc32)c1 | -4 | 1.1 | . | . | 3 | 3590 | -15
